T cruzi inh: inhibitors of intracellular T. cruzi growth, primary screen, luminescence, NIH3T3 host cells; T. cruzi beta-gal in NIH3T3, 90 h; 300,000 compounds, 1.4% hits; inhibition, % (concentration not given with the values);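 active = mean inhibition across valid replicates above about 55%, limit read from the data; inconclusive = mean below that limit but half or more replicates reach it; inactive = mean below it, under half of replicates reach it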;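 note: signal also drops with host cell toxicity which is not excluded here; 0% = plate median of DMSO wells and 100% = zero luminescence signal; higher percent means less beta-gal luminescence so fewer parasites; stock transfer was 50 nL into about 50 µL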
UCH37 DUB inh: inhibitors of human UCH37 deubiquitinase, primary screen, biochemical, Ub-AMC cleavage, fluorescence; purified proteasome/UCH37; AID 588478, 2011; inhibition, % (concentration not given with the values); 330,000 compounds, 0.33% hits;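 active = mean of two replicates above 20%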;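 note: 0% = compound-free wells with enzyme and 100% = wells lacking proteasome; stock transfer was 100 nL into about 20 µL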
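Material: Human UCH37 enzyme supplied as purified proteasome complex | Schedule: 30 min preincubation with enzyme, 25 min cleavage at room temperature | Detection: AMC fluorescence 355/460 nm | Measure: % inhibition of Ub-AMC cleavage fluorescence | Controls: Wells without proteasome as full block, compound-free enzyme plus substrate as uninhibited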
E coli growth: E. coli growth inhibition, primary screen, OD600; OD600 absorbance (no concentration beside the values); Escherichia coli growth, 23 h; active compounds read low; 330,000 compounds, 0.21% hits;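 active = OD600 absorbance below the run mean of sample wells minus 3.6 SD, in any replicate, cut at about 0.56 in these data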;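 note: stock transfer was 300 nL into about 60 µL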
Beta apoptosis: inhibitors of cytokine-induced beta cell apoptosis, primary screen, luminescence; 300,000 compounds, 0.8% hits; INS-1E cytokine-induced death, ATP luminescence, 48 h; percent of positive-control rescue, neutral wells zero; protection from apoptosis, % (concentration not given with the values);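 active = all replicates at 75% or more, or half of them and the mean; inconclusive = half reach 75% but not the mean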;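 note: 0% = cytokine-treated negative control wells and 100% = positive control rescue; higher means more ATP so stronger rescue from cytokine killing; wells of about 40 µL received 100 nL stock; the first replicate is given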
rRNA inh HTS: reduced GFP signal of wild-type E. coli, primary screen, bacterial rRNA inhibitor project, GFP/RFP fluorescence, OD600, single point; GFP signal change (wild-type ribosome), % (test concentration not listed); AID 720706, 2013; 350,000 compounds, 1.6% hits; E. coli WT GFP vs humanized-ribosome RFP mutants, 24 h; active compounds read low; DMSO median 0, no signal -100;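 active = significant combined selectivity score with lowered wild-type GFP, culture density cut under 30%, mutant RFP and density less affected; inactive = any of these conditions unmet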; note: one replicate is shown; some compounds called inactive have numbers as strong as hits
FGF22 binding: binders of human FGF22 protein, primary screen, FGF22 synaptogenesis inhibitor project, biophysical, thermal shift, single point. Fibroblast growth factor 22 (Homo sapiens), Q9HCT0. recombinant FGF22 thermal shift, SYPRO orange fluorescence; percent of sucrose octasulfate shift, DMSO zero. calls only at 9.99 µM. 340,000 compounds, 1.5% hits. AID 651658, 2012;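 active = melting point raised past a set limit in the mean and every replicate; inconclusive = no clear call; three in four hits are not shown here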
Target sequence (Q9HCT0 whole entry, looked up): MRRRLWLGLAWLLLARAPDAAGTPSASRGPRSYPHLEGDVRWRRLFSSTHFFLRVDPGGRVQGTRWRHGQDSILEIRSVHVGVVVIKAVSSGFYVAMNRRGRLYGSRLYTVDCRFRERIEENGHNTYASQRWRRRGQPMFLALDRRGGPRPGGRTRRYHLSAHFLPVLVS
Bfl-1 A1 inh: caspase 3/7 activation in MEF A1-2A-BIM cells, primary screen, A1 inhibitor project, cell-based, luminescence, HTS; Caspase-Glo 3/7 luminescence, 3 h; percent of clofoctol response, vehicle zero; caspase activation, % (test concentration not listed); 330,000 compounds, 0.066% hits;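 active = over half of replicate activation scores above 10%, or exactly half above 10 with the replicate mean above 10; inconclusive = replicate mean below 10 yet half the replicates above 10; inactive = over half of replicates below 10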;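 note: wells of about 30 µL received 50 nL stock; many hits fall short of the cut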
MLL AF4-AF9 inh: inhibitors of AF4 peptide binding to AF9, primary screen, biochemical, AlphaScreen, biotin-AF4 peptide, FLAG-AF9, single point. inhibition, % at 10 µM. 350,000 compounds, 0.47% hits;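 active = every replicate reaching a set inhibition limit, whatever the replicate mean, cut at about 25% in these data; inconclusive = mean inhibition reaches that limit but some replicates miss it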;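 note: 0% = plate neutral control median and 100% = total signal loss; the record names both 10 and 1 µM as test concentration; the first replicate is given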
Target sequence (P42568 whole entry, looked up): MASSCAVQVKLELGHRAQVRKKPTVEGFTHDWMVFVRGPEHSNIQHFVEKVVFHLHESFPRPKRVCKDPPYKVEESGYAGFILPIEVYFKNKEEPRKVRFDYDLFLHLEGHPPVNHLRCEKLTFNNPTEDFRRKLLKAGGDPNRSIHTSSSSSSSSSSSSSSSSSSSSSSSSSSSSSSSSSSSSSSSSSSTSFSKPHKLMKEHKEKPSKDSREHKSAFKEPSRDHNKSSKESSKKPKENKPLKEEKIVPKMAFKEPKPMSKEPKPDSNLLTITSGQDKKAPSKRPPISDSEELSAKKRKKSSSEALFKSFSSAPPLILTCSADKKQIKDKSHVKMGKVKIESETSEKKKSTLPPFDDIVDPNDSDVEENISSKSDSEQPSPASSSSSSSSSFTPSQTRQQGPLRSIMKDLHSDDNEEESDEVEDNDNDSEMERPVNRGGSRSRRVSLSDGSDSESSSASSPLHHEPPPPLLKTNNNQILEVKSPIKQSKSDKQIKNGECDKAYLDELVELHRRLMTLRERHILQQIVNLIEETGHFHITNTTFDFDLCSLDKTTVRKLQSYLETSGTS
rRNA inh HTS OD600: also measured in rRNA inh HTS; calls as there; OD600 change, %; measured here: OD600 growth;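 optical density of the mix in the first replicate; 0 = DMSO median and -100 = no signal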
rRNA inh HTS RFP: further read-out of rRNA inh HTS, marked with its call; RFP signal change, %; measured here: RFP humanized mutant strains;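 first replicate; 0 = DMSO median and -100 = no signal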
The depositor's hits bear a star. The list is partial (hit frequency here may not be typical).

`COc1cccc(CN2CC(C(=O)NCc3cnn(C)c3)CCC2=O)c1` (centres undefined) gave T cruzi inh -3, UCH37 DUB inh 2.5, E coli growth 0.66, Beta apoptosis -3, rRNA inh HTS 9, FGF22 binding inactive, Bfl-1 A1 inh -0.6, MLL AF4-AF9 inh -1.1, rRNA inh HTS OD600 16 and rRNA inh HTS RFP -1.5.
Cc1cc(C)nc(NNC2=CC(=[N+]3CCCCC3)CC(C)(C)C2)n1 was read as T cruzi inh 5, UCH37 DUB inh 8.0, E coli growth 0.67, Beta apoptosis 13, rRNA inh HTS 16, Bfl-1 A1 inh 0.0, MLL AF4-AF9 inh -0.5, rRNA inh HTS OD600 7 and rRNA inh HTS RFP 40.
For Cc1cccc(NC(=O)CSc2nc3ccccc3nc2N2CCCC2)c1C the results were T cruzi inh -1, UCH37 DUB inh -9.5, E coli growth 0.79, Beta apoptosis 1, rRNA inh HTS 7, FGF22 binding inactive, Bfl-1 A1 inh 0.4, MLL AF4-AF9 inh 3.9, rRNA inh HTS OD600 -7 and rRNA inh HTS RFP -2.1.
COc1ccc(N=Cc2[nH]c3ccccc3c2O)cc1 was read as T cruzi inh -20, Beta apoptosis -16, rRNA inh HTS 11, FGF22 binding inactive, Bfl-1 A1 inh 0.1, MLL AF4-AF9 inh -5.3, rRNA inh HTS OD600 9 and rRNA inh HTS RFP 2.8.
Screening COc1ccccc1C1CC(=O)Oc2ccc(C(C)(C)C)cc21 (centres undefined) returned UCH37 DUB inh 1.5, E coli growth 0.72, rRNA inh HTS -8, FGF22 binding inactive, MLL AF4-AF9 inh -1.2, rRNA inh HTS OD600 -19 and rRNA inh HTS RFP -3.0.
CCC(C)(C)n1nnnc1C(c1cccs1)N1CCCCC1 (centres undefined) was read as T cruzi inh -3, UCH37 DUB inh -1.5, E coli growth 0.68, Beta apoptosis 3, rRNA inh HTS -34, FGF22 binding inactive, Bfl-1 A1 inh 0.0, MLL AF4-AF9 inh 2.4, rRNA inh HTS OD600 -39 and rRNA inh HTS RFP -9.7.
CS(=O)(=O)c1ccc(N)c(SSc2cc(S(C)(=O)=O)ccc2N)c1 was read as T cruzi inh -25, UCH37 DUB inh 3.5, E coli growth 0.66, Beta apoptosis 8, rRNA inh HTS 3, FGF22 binding inactive, Bfl-1 A1 inh 0.1, MLL AF4-AF9 inh -16, rRNA inh HTS OD600 -3 and rRNA inh HTS RFP 8.5.
`CCCc1nc2ccc(NC(C)=O)cc2c(=O)n1Cc1ccc(Cl)cc1` gave T cruzi inh 39, UCH37 DUB inh -0.2, E coli growth 0.69, rRNA inh HTS 10, FGF22 binding inactive, Bfl-1 A1 inh -1.2, MLL AF4-AF9 inh -1.2, rRNA inh HTS OD600 7 and rRNA inh HTS RFP 1.2.
Screening CN(C)c1ccc(NC(=O)Cn2ncn3c(cc4ccccc43)c2=O)cc1 returned T cruzi inh 43, UCH37 DUB inh 0.8, E coli growth 0.64, Beta apoptosis -1, rRNA inh HTS 0, FGF22 binding inactive, Bfl-1 A1 inh 0.0, MLL AF4-AF9 inh -2.6, rRNA inh HTS OD600 5 and rRNA inh HTS RFP 4.3.
`N/C(=N\N=C\c1cccs1)SC1CC(=O)N(c2ccc(Br)cc2)C1=O` (centres undefined) gave T cruzi inh -11, rRNA inh HTS 3, FGF22 binding inactive, Bfl-1 A1 inh 0.3, MLL AF4-AF9 inh -15, rRNA inh HTS OD600 8 and rRNA inh HTS RFP -0.1.
`CN(C(=O)c1ccc2c(Cl)c3c(nc2c1)CCC3)c1ccccc1` gave T cruzi inh 10, UCH37 DUB inh 3.5, E coli growth 0.8, Beta apoptosis 4, rRNA inh HTS -16, FGF22 binding inactive, MLL AF4-AF9 inh -1.5, rRNA inh HTS OD600 -57 and rRNA inh HTS RFP -6.8.
COc1ccccc1C(=O)Nc1ccc(OCC(=O)N2C(C)CCCC2C)cc1 (centres undefined) was read as Beta apoptosis -3, rRNA inh HTS -9, FGF22 binding inactive, Bfl-1 A1 inh 0.9, MLL AF4-AF9 inh 0.7, rRNA inh HTS OD600 -14 and rRNA inh HTS RFP -0.1.
COc1cccc(C2(O)CCN(C(=O)C3CC3)CC2)c1 was read as T cruzi inh -1, UCH37 DUB inh 5.3, E coli growth 0.69, Beta apoptosis -5 and Bfl-1 A1 inh 1.1.
`Cc1cc(C(=O)c2ccccc2)c(NC(=O)CCl)s1` gave T cruzi inh 10, UCH37 DUB inh 0.6, E coli growth 0.7, Beta apoptosis 12 and Bfl-1 A1 inh 1.4.
`O=C(CO/N=C/c1c(Cl)cccc1Cl)NNC(=O)c1cccc(Cl)c1` gave T cruzi inh -12, Beta apoptosis -4, rRNA inh HTS 12, FGF22 binding inactive, Bfl-1 A1 inh -0.1, MLL AF4-AF9 inh -20, rRNA inh HTS OD600 12 and rRNA inh HTS RFP 0.1.
For CCOC(=O)C(CCCCOc1cccc(CC)c1)C(=O)OCC the results were T cruzi inh 15, UCH37 DUB inh 4.0, Beta apoptosis -3 and Bfl-1 A1 inh -0.2.
`Cc1ccc(NC(=O)C(=O)NNC(=O)c2cccs2)cc1` gave T cruzi inh 16, UCH37 DUB inh 9.2, E coli growth 0.68, Beta apoptosis 14, rRNA inh HTS -19, FGF22 binding inactive, Bfl-1 A1 inh 0.5, MLL AF4-AF9 inh 0.8, rRNA inh HTS OD600 -8 and rRNA inh HTS RFP -13.
Screening O=C(NCCCN1CCOCC1)C(=O)c1c[nH]c2ccccc12 returned T cruzi inh -3, UCH37 DUB inh 6.8, E coli growth 0.72, Beta apoptosis 0, rRNA inh HTS 3, FGF22 binding inactive, Bfl-1 A1 inh -0.3, MLL AF4-AF9 inh -5.8, rRNA inh HTS OD600 7 and rRNA inh HTS RFP 0.4.
`O=C(C1CCC(CNc2c(N3CCCCC3)c(=O)c2=O)CC1)N1CCN(C2CCCCC2)CC1` (centres undefined) gave T cruzi inh -2, UCH37 DUB inh 3.7, E coli growth 0.68, Beta apoptosis 8, rRNA inh HTS 12, FGF22 binding inactive, Bfl-1 A1 inh -0.4, MLL AF4-AF9 inh -1.2, rRNA inh HTS OD600 5 and rRNA inh HTS RFP -4.3.
For CC(C)c1ccccc1NC(=O)C1CC(=O)N(C2CCCC2)C1 (centres undefined) the results were T cruzi inh -1, UCH37 DUB inh -0.2, E coli growth 0.68, Beta apoptosis -1, rRNA inh HTS 16, FGF22 binding inactive, Bfl-1 A1 inh 0.6, MLL AF4-AF9 inh -1.7, rRNA inh HTS OD600 15 and rRNA inh HTS RFP 3.1.
`CCOC(=O)c1ccc2nc(NC(=O)C(C)C)sc2c1` gave T cruzi inh 44, UCH37 DUB inh 7.1, E coli growth 0.71, rRNA inh HTS -10, FGF22 binding inactive, Bfl-1 A1 inh -6.1, MLL AF4-AF9 inh -0.3, rRNA inh HTS OD600 -4 and rRNA inh HTS RFP -1.0.
For C=CCn1c(CCCNC(=O)c2ccccc2OC)nc2ccccc21 the results were T cruzi inh 0, UCH37 DUB inh -0.8, E coli growth 0.68, Beta apoptosis -3 and Bfl-1 A1 inh 0.0.
COc1ccccc1/C=N\Nc1ccccc1[N+](=O)[O-] was read as T cruzi inh 4, Beta apoptosis -10, rRNA inh HTS 5, FGF22 binding inactive, Bfl-1 A1 inh -3.0, MLL AF4-AF9 inh 0.8, rRNA inh HTS OD600 10 and rRNA inh HTS RFP -2.1.
CCN(CC)C(=O)COC(=O)C1=NN(c2cc(C)ccc2C)C(=O)CC1 was read as T cruzi inh -19, UCH37 DUB inh 4.7, E coli growth 0.72, Beta apoptosis -4, rRNA inh HTS 8, FGF22 binding inactive, Bfl-1 A1 inh 1.4, MLL AF4-AF9 inh -3.4, rRNA inh HTS OD600 13 and rRNA inh HTS RFP 0.9.
Screening O=S(c1ccsc1)c1ccsc1 returned T cruzi inh -4, UCH37 DUB inh 0.8, E coli growth 0.62, Beta apoptosis -3 and Bfl-1 A1 inh -0.1.
COc1ccc(C(C(=O)NC2CCCC2)N(CCCO)C(=O)c2snc(C(N)=O)c2N)cc1 (centres undefined) was read as T cruzi inh inconclusive, UCH37 DUB inh 6.8, E coli growth 0.64, Beta apoptosis -4, rRNA inh HTS 12, FGF22 binding inactive, Bfl-1 A1 inh -0.2, MLL AF4-AF9 inh -1.6, rRNA inh HTS OD600 0 and rRNA inh HTS RFP 0.9.
For O=C(CSc1ccc(Cl)cc1)NNC(=O)c1cccnc1 the results were T cruzi inh -5, UCH37 DUB inh 2.1, E coli growth 0.66, Beta apoptosis -5, rRNA inh HTS 14, FGF22 binding inactive, Bfl-1 A1 inh -0.1, MLL AF4-AF9 inh -0.8, rRNA inh HTS OD600 11 and rRNA inh HTS RFP -2.7.
`Nc1c(C(=O)Nc2ccccc2)nnn1-c1ccc2c(c1)OCCO2` gave T cruzi inh 19, UCH37 DUB inh 1.9, E coli growth 0.67, Beta apoptosis 2, rRNA inh HTS -12, FGF22 binding inactive, Bfl-1 A1 inh -8.7, MLL AF4-AF9 inh 0.8, rRNA inh HTS OD600 -5 and rRNA inh HTS RFP -2.4.
For COc1ccc(C(=O)C2CCCN(Cc3cccn3-c3ccccn3)C2)c(OC)c1 (centres undefined) the results were T cruzi inh 35, UCH37 DUB inh -0.3, E coli growth 0.66, Beta apoptosis 19, rRNA inh HTS -10, FGF22 binding inactive, Bfl-1 A1 inh 1.2, MLL AF4-AF9 inh 7.5, rRNA inh HTS OD600 -12 and rRNA inh HTS RFP -5.5.
For Cc1cc(NC(=O)c2ccccc2)ccc1NC(=O)c1ccccc1Cl the results were T cruzi inh 3, UCH37 DUB inh -4.1, E coli growth 0.71, rRNA inh HTS 2, FGF22 binding inactive, Bfl-1 A1 inh 0.0, MLL AF4-AF9 inh -7.7, rRNA inh HTS OD600 3 and rRNA inh HTS RFP -2.5.
CC(C)CCN(CC(=O)NC(C)(C)C)C(=O)C(=O)Nc1ccc2c(c1)OCCO2 was read as T cruzi inh -8, UCH37 DUB inh -1.3, E coli growth 0.65, Beta apoptosis -3, rRNA inh HTS 14, FGF22 binding inactive, Bfl-1 A1 inh 0.8, MLL AF4-AF9 inh -2.8, rRNA inh HTS OD600 12 and rRNA inh HTS RFP 9.0.
